High-throughput results: PubChem BioAssay, several laboratories
A1 inh: caspase 3/7 activation in MEF A1-2A-BIM cells, primary screen, A1 inhibitor project, cell-based, luminescence, HTS; Caspase-Glo 3/7 luminescence, 3 h; percent of clofoctol response, vehicle zero; caspase activation, % (test concentration not listed); actives 0.066% (n = 330,000);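 active = over half of replicate activation scores above 10%, or exactly half above 10 with the replicate mean above 10; inconclusive = replicate mean below 10 yet half the replicates above 10; inactive = over half of replicates below 10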;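 note: wells of about 30 µL received 50 nL stock; many hits fall short of the cut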
RanGTP-Impb inh: inhibitors of RanGTP-importin-beta interaction, primary screen, biochemical, FRET, CFP-Ran, YFP-importin-beta, homogeneous; Ran GTPase (GTP-bound) - importin-beta complex; cell-free CFP-Ran/YFP-importin-beta FRET ratio; inhibition, % (test concentration not listed); actives 1.1% (n = 300,000); AID 2216, 2009;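 active = most replicates above 15%; inconclusive = exactly half above 15%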;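 note: 0% = DMSO wells and 100% = Ran loaded with GDP instead of GTP; wells of about 40 µL received 100 nL stock; the first replicate is given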
Beta apoptosis: inhibitors of cytokine-induced beta cell apoptosis, primary screen, luminescence. AID 435005, 2010. actives 0.8% (n = 300,000). INS-1E cytokine-induced death, ATP luminescence, 48 h; percent of positive-control rescue, neutral wells zero. protection from apoptosis, % (concentration not given with the values);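 active = all replicates at 75% or more, or half of them and the mean; inconclusive = half reach 75% but not the mean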;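 note: 0% = cytokine-treated negative control wells and 100% = positive control rescue; higher means more ATP so stronger rescue from cytokine killing; wells of about 40 µL received 100 nL stock; the first replicate is given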
Calb FLC: C. albicans growth inhibition with fluconazole, primary screen, CaCi-2 strain, Alamar Blue fluorescence; C. albicans CaCi-2 (fluconazole-resistant clinical isolate) + fluconazole, 48 h; growth inhibition, % (concentration not given with the values); actives 0.57% (n = 300,000);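 active = most replicates above 75%; inconclusive = exactly half above 75%; inactive = most below 75%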;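 note: all wells also contain fluconazole at 8 µg/ml as a sub-toxic cotreatment; 0% = median of DMSO wells and 100% = median of geldanamycin control wells; wells of about 8 µL received 7.5 nL stock; the first replicate is given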
Vif TR-FRET: inhibitors of Vif binding to APOBEC3G peptide, primary screen, biochemical, TR-FRET, GST-Vif 1-94, biotin-A3G peptide, dose response retest (AID 1117319) | Virion infectivity factor (Human immunodeficiency virus type 1 group M subtype B (isolate … | TR-FRET GST-Vif / biotin-A3G peptide binding; higher % means a stronger effect; test concentration not given here; strong numbers were not always called active | one-dose inhibition, %; IC50 in µM for titrated hits | actives 0.57% (n = 260,000);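 active = above the screen mean plus three standard deviations and confirmed in dose response; inconclusive = results disagree or hit not tested in dose response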;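 note: Vif residues 1-94 fused to GST binding biotinylated APOBEC3G peptide 110-148; 0% = full assay without inhibitor and 100% = GST in place of GST-Vif; retest series ran down from 100 µM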
AF4-AF9 inh: inhibitors of AF4 peptide binding to AF9, primary screen, biochemical, AlphaScreen, biotin-AF4 peptide, FLAG-AF9, single point | inhibition, % at 10 µM | actives 0.47% (n = 350,000) | Protein AF-9 (Homo sapiens), P42568;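 active = every replicate reaching a set inhibition limit, whatever the replicate mean, cut at about 25% in these data; inconclusive = mean inhibition reaches that limit but some replicates miss it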;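 note: 0% = plate neutral control median and 100% = total signal loss; the record names both 10 and 1 µM as test concentration; the first replicate is given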
Target sequence (P42568 whole entry, looked up): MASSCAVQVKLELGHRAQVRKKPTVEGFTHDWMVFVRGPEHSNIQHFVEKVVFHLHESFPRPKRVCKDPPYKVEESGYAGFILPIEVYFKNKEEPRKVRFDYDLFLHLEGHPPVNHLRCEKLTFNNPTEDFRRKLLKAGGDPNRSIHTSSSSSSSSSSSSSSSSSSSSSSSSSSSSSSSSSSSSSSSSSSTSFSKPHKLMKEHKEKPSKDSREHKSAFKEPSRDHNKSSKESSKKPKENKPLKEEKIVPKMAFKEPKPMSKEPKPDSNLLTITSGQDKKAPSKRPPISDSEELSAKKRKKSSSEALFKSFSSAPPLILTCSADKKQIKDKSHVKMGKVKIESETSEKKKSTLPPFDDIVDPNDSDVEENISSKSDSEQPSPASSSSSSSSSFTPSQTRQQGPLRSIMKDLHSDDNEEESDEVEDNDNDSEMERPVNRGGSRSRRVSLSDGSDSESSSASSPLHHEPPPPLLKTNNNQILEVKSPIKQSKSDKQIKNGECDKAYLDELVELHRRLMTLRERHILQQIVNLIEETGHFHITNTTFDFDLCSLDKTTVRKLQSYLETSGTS
LANA-H2A inh: blockers of LANA interaction with H2A/H2B – biochemical, FP readout, HTS, primary screen; Protein LANA1 (Human herpesvirus 8 type P (isolate GK18)), Q9QR71; cell-free LANA-H2A/H2B peptide, fluorescence polarization; inhibition, % (concentration not given with the values); actives 0.6% (n = 320,000); AID 2629, 2010; in the data active = inhibition mostly above about 10%, no sharp cut-off; inactive = mostly below about 6.7%;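 note: stock transfer was 7.5 nL into about 10 µL; 0% = median of vehicle wells and 100% = median of positive control wells; one replicate is shown; the record names a cut of 25% in any replicate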
T cruzi repl: inhibitors of intracellular T. cruzi growth, primary screen, luminescence, NIH3T3 host cells. T. cruzi beta-gal in NIH3T3, 90 h. inhibition, % (no concentration beside the values). actives 1.4% (n = 300,000). AID 1885, 2009;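 active = mean inhibition across valid replicates above about 55%, limit read from the data; inconclusive = mean below that limit but half or more replicates reach it; inactive = mean below it, under half of replicates reach it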;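 note: signal also drops with host cell toxicity which is not excluded here; 0% = plate median of DMSO wells and 100% = zero luminescence signal; higher percent means less beta-gal luminescence so fewer parasites; stock transfer was 50 nL into about 50 µL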
Numbers without * were called inactive; u = inconclusive; x = not tested or not shown.

smiles	A1 inh	RanGTP-Impb inh	Beta apoptosis	Calb FLC	Vif TR-FRET	AF4-AF9 inh	LANA-H2A inh	T cruzi repl
Cc1ccc2nc(NC(=O)COC(=O)c3ccncc3)sc2c1	-5.5	-106	-6	-6	1%	0.8	1.7	7
Cc1ccc(CN2C(=O)CCC2C(=O)NCc2ccco2)cc1 (stereo not drawn)	0.6	-4.1	-3	-7	2%	x	3.3	-5
O=C1Nc2cc(Cl)c(Cl)cc2N(O)N1c1cccc(Cl)c1	-0.6	-2.4	0	-10	3%	x	2.7	-15
Cn1ccnc1SCCNC(=O)C1CCC(=O)N(Cc2ccc(Cl)cc2)C1 (stereo not drawn)	0.5	4.8	-3	-14	x	-2.9	3.4	-5
O=C(O)c1ccc2c(c1)C(=O)N(c1cc([N+](=O)[O-])ccn1)C2=O	0.0	1.8	x	-6	-9%	1.4	-2.6	-10
CC(=O)Nc1ccc(S(=O)(=O)Nc2cccc(-c3cn4cccnc4n3)c2)cc1	1.4	-1.7	-6	-19	1%	1.1	4.5	-4
Cc1cc(S(=O)(=O)Nc2ccc3c(c2)COC3=O)ccc1F	0.2	-2.3	x	43	0%	-13	2.1	-12
O=C(Cn1ncc(N2CCOCC2)c(Br)c1=O)c1ccc(Cl)cc1	-0.2	6.7	4	-12	5%	-8.5	-0.3	10
Cc1ccccc1-n1c(-c2ccco2)n[nH]c1=S	0.1	6.3	-4	x	x	-8.7	-5.7	-6
Cc1ccccc1N(C(=O)Cn1nnc(-c2ccc(F)cc2)n1)C(C(=O)NC(C)(C)C)c1ccncc1 (stereo not drawn)	0.6	3.6	x	0	x	-1.3	-8.2	19
COc1ccccc1CNC(=O)c1ccc(CS(=O)(=O)c2ccccc2)o1	-0.4	u	0	2	-5%	-0.2	-2.0	-14
CSc1ccccc1OCc1cc(C(=O)NCc2cccc(C)n2)no1	-4.3	-0.6	-2	14	x	-3.9	-5.4	7
O=C(CN(Cc1ccccc1)C(=O)CCC(=O)Nc1ccccn1)NCc1ccco1	0.1	0.7	-1	-6	1%	x	3.1	7
O=C(Cc1cccc2ccccc12)NNC(=O)Nc1cccc(Cl)c1	0.7	3.5	-1	0	2%	x	2.1	-5
O=C(Nc1ccc(NC(=O)c2cccnc2)cc1)c1ccccc1	-0.6	-4.6	0	2	x	-1.7	1.3	-11
CC(C)C[C@H](NC(=O)C1CCN(S(=O)(=O)c2ccccc2)CC1)C(=O)NCc1cccnc1	0.0	0.7	x	-7	x	-5.8	-0.1	6
COc1ccc(NC(=O)c2c3c(nc4ccccc24)CCC3)cc1	1.0	4.5	-3	-32	0%	x	1.2	18
CSC1=NC2(CC(c3ccccc3)Oc3cc(O)ccc32)CC(C)(C)N1 (stereo not drawn)	1.0	-0.7	6	-4	10%	x	-5.8	6
CSCCC(NC(=O)CCN1C(=O)c2ccccc2C1=O)C(=O)O (stereo not drawn)	0.3	-1.7	-8	3	3%	x	-2.1	-8
CC1(C)CC(=O)C=C(c2ccc(-c3ccccc3)cc2)C1	-3.5	x	-2	x	x	-8.5	1.8	x

Single entries from the entries so far:
CSCCC(NC(=O)CCN1C(=O)c2ccccc2C1=O)C(=O)O (stereo not drawn) – RanGTP-Impb inh = -1.7
O=C(Cn1ncc(N2CCOCC2)c(Br)c1=O)c1ccc(Cl)cc1 – LANA-H2A inh = -0.3

Next structures follow.
smiles	A1 inh	RanGTP-Impb inh	Beta apoptosis	Calb FLC	Vif TR-FRET	AF4-AF9 inh	LANA-H2A inh	T cruzi repl
COc1cccc(-c2ccc(C#N)c(OC(=O)c3c(Cl)cccc3Cl)n2)c1	0.0	1.5	-3	1	1%	x	-0.6	16
CC1Sc2ccc(S(=O)(=O)CCC(=O)NC3CCCCCC3)cc2NC1=O (stereo not drawn)	-0.4	-2.7	-1	1	x	0.1	-3.2	-1
Cn1cccc1C(=O)OCC(=O)N1CCN(c2ccccc2)CC1	-0.7	x	-6	x	-6%	1.6	-0.9	x
CCOC(=O)CSc1nc2sc3c(c2c(=O)n1-c1ccc(OCC)cc1)CCN(C)C3	0.2	1.8	-1	26	11%	8.6	2.2	41
O=C(N/N=C/c1ccc(Br)cc1)c1ccccc1-n1cccc1	0.2	-1.2	6	-1	-1%	-11	-0.1	5
Cc1cc(C(=O)CSc2nnc(-c3ccccc3)n2-c2ccccc2)c(C)n1-c1ncn[nH]1	0.1	-1.9	-3	-4	-4%	x	0.5	10
COc1cccc(N2CCN(C(=O)c3ccccc3SCC(=O)NCc3ccco3)CC2)c1	0.0	x	1	x	-9%	-3.5	0.2	x
Cc1ccccc1C(=O)OCC(=O)N(C)c1c(N)n(Cc2ccccc2)c(=O)[nH]c1=O	0.7	1.8	0	x	1%	-1.1	2.2	-6
CCOc1ccc(NC(=O)CC(NC(C)=O)c2ccccc2)cc1S(=O)(=O)N1CCCC1 (stereo not drawn)	-0.6	x	-4	x	-7%	-2.4	1.7	x
C/C(CC(=O)Nc1ccc(Cl)cc1Cl)=N\NC(=O)c1ccncc1	-0.4	0.0	-4	8	x	x	3.9	-9
CC(=O)c1cccc(NC(=O)COc2ccc(S(=O)(=O)N3CCOCC3)cc2)c1	2.2	4.0	2	-1	x	-0.4	-1.0	-5
CCn1c(SCC#N)nc2ccccc2c1=O	-0.1	4.7	-5	13	14%	-3.8	2.8	-11
COc1cc(NC(=O)CSc2ccc3c(c2)OCCO3)cc(OC)c1OC	0.1	1.6	4	6	0%	x	-4.9	-2
CSc1cccc(N/C(=N/S(=O)(=O)c2ccccc2)NN)c1	1.6	0.4	-3	-1	3%	-0.7	3.0	-16
CCCCOc1ccc(C(=O)NCCc2ccccc2)cc1	-2.5	-1.7	7	-17	x	-0.6	-5.7	6
CC1CCC2(CC1)NC(=O)N(CC(=O)Nc1ccc(N3CCOCC3)cc1)C2=O (stereo not drawn)	0.2	-2.4	9	0	11%	15	0.8	-13
O=C1CC(C(=O)Nc2cccc3ccccc23)C2(CCCC2)O1 (stereo not drawn)	1.5	0.9	4	11	u	x	2.5	-9
O=C(NCCCCC(NC(=O)c1ccc([N+](=O)[O-])cc1)C(=O)O)c1ccc([N+](=O)[O-])cc1 (stereo not drawn)	0.9	1.6	-3	0	7%	x	12	-12
O=C(CN1CCN(S(=O)(=O)/C=C/c2ccccc2)CC1)Nc1ccccc1N1CCOCC1	0.0	0.7	0	-2	-1%	7.0	-4.1	12
O=C(Nc1ccccc1)NC1(C(=O)N2CCN(c3ncccn3)CC2)CCCCC1	0.7	-3.1	-6	-5	u	x	-1.2	-19
FC(F)Oc1ccc(NC(=S)NC2CCCCCCC2)cc1	0.4	0.9	7	-1	x	2.3	-1.9	5
CC(=O)Nc1ccc(S(=O)(=O)Nc2nc3ccccc3nc2Nc2ccc(O)c(C(=O)O)c2)cc1	-0.2	-78	-5	0	x	-0.5	1.1	-6
COc1ccc(S(=O)(=O)N2CCN(Cc3ccccc3)CC2)c(C)c1	1.0	u	-5	-5	7%	-0.2	3.5	7
COc1ccc(C(=O)NNC2=NS(=O)(=O)c3ccccc32)cc1OC	-2.3	1.1	-12	5	x	-0.3	1.2	-21
COC(=O)c1ccc(N/C=C\C(=O)c2ccc3c(c2)OCO3)cc1	-0.7	1.9	-2	1	3%	-0.7	-2.4	-19
COc1ccc(NS(=O)(=O)c2ccc3c(c2)NC(=O)CO3)cc1	1.1	3.4	2	-3	-2%	-3.0	2.5	2
COc1ccc2cc(CN(Cc3cccnc3)S(=O)(=O)c3ccccc3)c(=O)[nH]c2c1	0.4	-1.0	-6	12	5%	-63	0.0	30
O=C(c1cccs1)N1CCC(C(=O)N2CCN(Cc3ccc4c(c3)OCO4)CC2)CC1	0.3	-2.5	4	u	x	-13	14	-10
Cc1c(OC(C)C(=O)NCC2CCC(C(=O)O)CC2)ccc2c3c(c(=O)oc12)CCCC3 (stereo not drawn)	0.5	0.9	6	2	5%	0.1	4.4	4
Cc1cccc(Nc2ccccc2C(=O)NCc2ccco2)c1C	0.0	0.8	-2	u	15%	x	2.4	18
O=C(Nc1sc2c(c1C(=O)N1CCOCC1)CCCCC2)c1cccnc1	1.2	-1.1	-2	-3	x	-4.4	8.8	-21
CCCS(=O)(=O)c1c(S(=O)(=O)CCC)c2c(N)cccn2c1C(=O)OC	0.1	-5.0	-6	-5	7%	0.8	3.8	2
CCN1CCc2nc(N)sc2C1	0.4	-0.8	-6	-9	-6%	-4.8	0.1	-3
COc1ccc(CCNC(=O)c2cccnc2)cc1	0.3	u	-4	4	14%	x	0.4	-13
CN(CC(=O)NCCCc1ccccc1)Cc1ccc(Br)cc1	-0.8	1.5	-18	15	3%	-0.9	1.2	-9
O=C1/C(=C\c2c(NCCOCCO)nc3ccccn3c2=O)SC(=S)N1Cc1ccco1	9.1*	-35	x	1	x	2.0	-0.6	-58
CCCCC(=O)Nc1nn(CC(C)C)c2nc3ccccc3cc12	-0.3	29*	-3	-4	20%	x	0.5	-1
CCc1ccc(N2CC(C(=O)OCc3csc(CC(=O)Nc4ccccc4C)n3)CC2=O)cc1 (stereo not drawn)	0.3	x	-10	x	2%	1.7	1.2	x

Compounds were not picked by outcome. Share with any hit: about 4.3%.
